TRPML1 inh = human mucolipin-1 channel inhibition; Q9GZU1; TRPML1-inducible cells, Ca2+ dye fluorescence, FDSS; hits give low values; inhibition of EC80 agonist-evoked calcium signal; activity change, negative = inhibition, % (no concentration beside the values); 390,000 compounds, 0.02% hits; AID 624415; in the data active means activity change below about -50%; inconclusive means about -30% to -50%; inactive means above about -30%;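 note: stimulus is agonist 54-4 at its EC80 concentration; % is set by controls: 0 for no effect and ±100 for the full control effect; compound concentration not given in the record; the text of the record puts the active cut at -80%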
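TRPML1-DL cells, Tet-induced overnight (~16 h, 37 °C) at 1,500 cells/well, were loaded with Ca8 no-wash dye plus quencher for 45-90 min at room temperature. Compounds were pinned during FDSS kinetic reading; agonist 54-4 at EC80 (4 uM final) then added.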
PINK1 expr mod = modulators of PINK1 expression | PINK1 immunofluorescence, high-content cytometry, 24 h | Potency, µM (highest dose often 76.6 µM), inactives show top-dose activation (PINK1 increase), most hits filed as activators | 410,000 compounds, 0.2% hits; active = well fitted activation curve with a large enough effect; inconclusive = small, poorly fitted or top-dose-only effect; inactive = flat fitted curve, though single readings scatter; cell line not stated here;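 note: potency is the fitted concentration of half-maximal effect; % of control where 0% means no effect; nearly all actives have a fitted effect of over 65% in size; a mitochondrial uncoupler was the plate control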
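Compound titrations (5 concentrations, 24 h) on a stable cell line; DMSO and CCCP controls. Endpoint: fixed-cell PINK1 immunofluorescence with mitochondrial, cell and nuclear markers, scanned by microplate cytometer.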
TRPML1 ag = activates the human TRPML1 channel; TRPML1-expressing cells, Ca2+ dye fluorescence, FDSS; host cell line not named in the record; reference of the full effect not given here; activation, % (no concentration beside the values); 410,000 compounds, 0.12% hits; Q9GZU1; in the data active = activation above about 50%; inconclusive = about 30% to 50%; inactive = below about 30%; note: 0% is about no effect; the text of the record puts the active cut at 80%
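Tet-induced TRPML1-DL cells, 1,500 per well, cultured overnight, were loaded with a no-wash Ca2+ dye for 45–90 min. Calcium fluorescence was recorded on the FDSS for 110 s after compound addition, before the EC80 agonist (4 uM 54-4) was added.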
TRPV1 potentiator = enhances activation of the human vanilloid receptor TRPV1; AID 540277; 320,000 compounds, 0.02% hits; Q8NER1; TRPV1-expressing cells, Fluo-8 calcium influx, capsaicin EC20 potentiation; host cell line not named in the record; control for the full effect not named in the record; potentiation, % at 8.33 µM; active means potentiation above 80%; inconclusive means 30% to 80%; inactive means below 30%; note: 0% is about no effect
Target sequence (Q8NER1 whole entry, looked up): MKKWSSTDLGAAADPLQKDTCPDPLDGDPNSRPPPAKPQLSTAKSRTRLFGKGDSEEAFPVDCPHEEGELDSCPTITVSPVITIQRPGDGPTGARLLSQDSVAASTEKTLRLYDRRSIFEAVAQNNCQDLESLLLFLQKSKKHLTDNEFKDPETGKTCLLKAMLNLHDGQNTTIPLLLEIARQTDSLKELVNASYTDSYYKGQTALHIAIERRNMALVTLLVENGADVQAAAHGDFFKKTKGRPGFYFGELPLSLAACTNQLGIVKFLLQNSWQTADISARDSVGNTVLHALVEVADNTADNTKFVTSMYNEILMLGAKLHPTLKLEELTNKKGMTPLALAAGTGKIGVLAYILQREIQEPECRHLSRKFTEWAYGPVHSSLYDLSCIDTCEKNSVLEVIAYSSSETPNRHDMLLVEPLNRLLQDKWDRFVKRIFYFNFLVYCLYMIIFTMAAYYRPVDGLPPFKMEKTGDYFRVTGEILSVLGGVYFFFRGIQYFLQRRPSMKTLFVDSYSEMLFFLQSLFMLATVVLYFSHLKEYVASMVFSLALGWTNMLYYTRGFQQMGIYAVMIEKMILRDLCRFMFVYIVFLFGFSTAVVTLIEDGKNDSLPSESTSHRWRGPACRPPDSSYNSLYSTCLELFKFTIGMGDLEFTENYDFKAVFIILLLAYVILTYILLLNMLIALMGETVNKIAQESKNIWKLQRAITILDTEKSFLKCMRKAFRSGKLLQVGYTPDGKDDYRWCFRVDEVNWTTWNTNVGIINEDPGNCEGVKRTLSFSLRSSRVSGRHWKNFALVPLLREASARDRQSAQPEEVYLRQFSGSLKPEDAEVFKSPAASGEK
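Cells expressing TRPV1 were dye-loaded with Fluo-8 and read kinetically: 10 s baseline, 3 min after compound (agonist portion), then 2 min after EC20 capsaicin (allosteric enhancer portion). Calcium-bound dye fluorescence at 480/520 nm.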
Sfp PPTase inh = inhibitors of Bacillus subtilis Sfp phosphopantetheinyl transferase. 310,000 compounds, 3.5% hits. Biochemical Sfp PPTase activity, qHTS. Potency, µM, without a hit: max response, negative = inhibition, actives largely listed as inhibitors. Q9F4F7; active = well fitted inhibition curve with a large enough effect; inconclusive = small, poorly fitted or top-dose-only effect, or another doubt; inactive = no such curve, though single readings can be large or run the other way;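 note: the enzyme is Sfp with the accession as filed and its product quenches rhodamine fluorescence; potency is the fitted concentration of half-maximal effect; 0% = enzyme reaction without inhibitor and -100% = no enzyme wells; top concentration of the series not given in the record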
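Step 1, compound plus 15 nM Sfp-PPTase, 15 min, room temperature. Step 2, add rhodamine-CoA (5 uM) and BHQ-2-YbbR (12.5 uM). Step 3, read 525/598 nm fluorescence at 0 and 30 min.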
Menin MLL FP FL = inhibitors of human menin-MLL interaction, wild-type MLL peptide; 290,000 tested, under 10 active; Fluorescence polarization, fluorescein-MLL peptide displacement from menin; FP activity change, % at 61.4 µM; AID 1766; inconclusive = falling polarisation curve, or a change in total fluorescence; inactive = total fluorescence flat and polarisation flat or rising; no compound was filed as active; the % refers to the polarisation; negative = inhibition;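 note: % of control where 0% means no effect; inhibitors lower the polarisation; unlabelled MLL peptide was the positive control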
ClpP mod = qHTS Assay for Activators of ClpP; ATP-dependent Clp protease proteolytic subunit (Bacillus subtilis (strain 168)), P80244; 340,000 compounds, 1.9% hits; Potency, µM (top dose mostly 57.5 µM), without a hit: top-dose activity change, negative = active; purified B. subtilis ClpP, FRET peptide cleavage, 20 min; active = well fitted falling curve with a large enough effect; inconclusive = small, poorly fitted or top-dose-only effect; inactive = no such curve, though single readings can be large or run the other way; note: potency is the fitted concentration of half-maximal effect; the source files actives as falling curves though it sought activators and does not explain the sign; nearly all actives have a fitted effect of over 65% in size; many hits overshoot -100%
Target sequence (P80244 whole entry, looked up): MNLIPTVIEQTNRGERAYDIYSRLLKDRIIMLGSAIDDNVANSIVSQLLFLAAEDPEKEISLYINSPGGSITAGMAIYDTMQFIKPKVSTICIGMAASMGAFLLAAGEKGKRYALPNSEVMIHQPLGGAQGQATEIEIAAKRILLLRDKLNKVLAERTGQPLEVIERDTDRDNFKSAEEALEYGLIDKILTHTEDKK
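ClpP 10 microg/mL final, pH 8 Tris/KCl buffer with BSA, glycerol, Tween-20; compound pinned in; FRET-FV substrate; RT 20 min; Ex320/Em430; ΔFRET vs ADEP 5.8 microM, DMSO, no enzyme.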
* = called active by the depositor; ? = inconclusive; . = not tested or not shown; [ ] = dose if it differs, or a comment.

SMILES	TRPML1 inh	PINK1 expr mod	TRPML1 ag	TRPV1 potentiator	Sfp PPTase inh	Menin MLL FP FL	ClpP mod
Cc1cccc(C2=NN(c3ccc(Br)cc3)[C@@H](C(=O)N3CCOC3=O)[C@@H]2c2ccccc2)c1	46	0.4%	0.2	.	30%	-1.3	4.9%
CN(C1CCCC1)C1CCN(C(=O)CNC(=O)/C=C/c2ccccc2)CC1	-4	-1.2%	0.0	-20	8%	3.0	-0.8%
Cc1oc2c(c(=O)c1C)C(=O)CC(c1ccccc1)C2 (stereo not drawn)	-14	0.0%	0.3	3	-6%	3.9	-2.6%
Cc1c(NC(=O)c2cccc(S(=O)(=O)N3CCOCC3)c2)c(=O)n(-c2ccccc2)n1C	10	1.8%[38.3 µM]	-0.2	?	14%	4.4	1.7%
O=C(CN1CCN(CC(=O)Nc2ccccc2Cl)CC1)NCC1(N2CCCCC2)CCCCC1	-12	4.5%	1.4	16	.	.	6.2%
COc1ccc(OC)c(N2C(=O)[C@@H]3C(c4ccccc4Cl)=NO[C@@H]3C2=O)c1	10	-0.4%	-0.7	14	5%	7.0	1.5%
Cc1cccc(C)c1NC(=O)C1=C(O)c2sccc2N(C)S1(=O)=O	8	8.1%	-0.6	13	23%	1.0	.
COc1cccc(C2=NOC(C(=O)N3CCOCC3)C2)c1 (stereo not drawn)	-15	0.0%[38.3 µM]	0.9	-16	8%	1.7	-4.6%
CCOC(=O)c1c(C)[nH]c(C(=O)CN2C(=O)NC(CC)(c3ccccc3)C2=O)c1C (stereo not drawn)	0	0.4%	3.7	-14	-13%	3.4	1.9%
O=C(NCCc1ccccc1)C1CCC(=O)N1C1CCCC1 (stereo not drawn)	2	-0.4%	-1.3	10	7%	-4.4	0.9%
Cc1ccc(-n2c3c(cc(C(=O)Nc4cccc(Cl)c4)c2=O)C(=O)CC(C)(C)C3)cc1	28	2.1%	0.2	.	.	.	1.0%
COc1cc2c(cc1/C=C1/NC(=O)N(CC(=O)Nc3ccccc3)C1=O)OCO2	-9	-0.2%	0.4	2	-5%	5.8	.
CC(Sc1nnc(-c2cccnc2)n1N)C(=O)Nc1ccc2c(c1)OCCO2 (stereo not drawn)	-4	1.0%	0.0	6	.	.	0.9%
CC(C)[C@H](NS(=O)(=O)c1ccccc1)C(=O)OCC(=O)NC1CCCCC1	-1	1.4%	-0.7	.	.	.	0.5%
Cc1cc(C)c(S(=O)(=O)N2CCOC2CNC(=O)C(=O)NCc2ccco2)c(C)c1 (stereo not drawn)	43	-0.8%	0.3	13	28%	0.2	-1.2%
N#CC1(c2ccccc2)CCC(=NO)CC1 (stereo not drawn)	0	-1.3%	0.5	-2	8%	-1.9	1.7%
CCOC(=O)c1c(NC(=O)COc2cccc(C)c2C)sc2c1CCCCC2	23	0.1%	-0.3	.	.	.	-7.1%
Cc1ccc(C)n1-c1ccc2c(c1)COC2=O	.	.	.	-11	15%	-0.6	.
O=C(CCn1nc(-c2ccc(F)cc2)ccc1=O)NCc1ccccc1	-5	0.1%	0.0	11	14%	-7.5	0.6%
NC(=O)COC(=O)CNC(=O)c1cc(Cl)cc([N+](=O)[O-])c1	-13	1.4%	-0.7	3	26%	-4.1	.
Cc1cc(SCC(=O)N/N=C/c2ccc(O)c(O)c2)c(C)cc1Br	10	-1.4%	4.3	-5	?	-0.5	0.7%
CCOC(=O)/C(C#N)=C/c1ccc(OCC(=O)Nc2ccc(OC)cc2)c(OC)c1	-4	-1.7%	-1.2	-2	13%	-4.8	1.5%
OC(c1ccccc1)C(Nc1ccccn1)c1ccccc1 (stereo not drawn)	15	0.0%	2.2	.	.	.	-11%
Cn1nnnc1SCC(=O)N1CCN(c2ccc(Cl)cc2)CC1	28	-1.6%	0.7	11	-5%	-1.9	-0.4%

Among those listed so far, two contain a thiophene ring, fused or not.
SMILES	TRPML1 inh	PINK1 expr mod	TRPML1 ag	TRPV1 potentiator	Sfp PPTase inh	Menin MLL FP FL	ClpP mod
Cc1cccc(C)c1NC(=O)C1=C(O)c2sccc2N(C)S1(=O)=O	8	8.1%	-0.6	13	23%	1.0	.
CCOC(=O)c1c(NC(=O)COc2cccc(C)c2C)sc2c1CCCCC2	23	0.1%	-0.3	.	.	.	-7.1%

Continuation.
SMILES	TRPML1 inh	PINK1 expr mod	TRPML1 ag	TRPV1 potentiator	Sfp PPTase inh	Menin MLL FP FL	ClpP mod
Cc1nn(C)c(C)c1CN(C)S(=O)(=O)c1ccc(F)cc1	-3	0.6%	-0.5	16	8%	1.6	-2.5%
CCC(C)(C(=O)NC1CCCCC1)N(C(=O)Cc1cccs1)c1ccccc1 (stereo not drawn)	-18	2.2%	1.9	7	25%	0.3	-3.3%
CC(C)c1nc(SCC(=O)N2CCc3ccccc32)n[nH]1	1	1.4%	0.0	-4	15%	-4.4	-6.1%
COc1ccc(/C=C/c2nccc3ccccc23)cc1OC	.	1.6%	-1.0	.	.	.	-9.6%
CC(C)c1ccc(Nc2ncnc3c2c(-c2ccccc2)cn3-c2ccccc2)cc1	7	1.7%	-0.2	.	.	.	2.5µM*
Cn1cc(C(=O)NCc2ccc(Cl)cc2)c(=O)c2cc(S(=O)(=O)N3CCCCCC3)ccc21	-18	2.4%	-1.0	.	.	.	0.8%
COc1ccc(S(=O)(=O)Oc2cccc(C(=S)N3CCOCC3)c2)cc1	3	15%	1.6	-12	4%	.	0.5%
CC(C)(C)c1ccc(OCC(=O)NNC(=O)Nc2ccccc2)cc1	-15	1.8%	0.0	1	12%	-1.3	0.5%
CN(C)c1ccc(-c2ccnc3c2CC(C)(C(=O)Nc2ccc(Cl)c(C(F)(F)F)c2)O3)cc1 (stereo not drawn)	62	3.0%	0.1	.	.	.	4.5%
CCOC(=O)c1ccc2c(c1)nc(C1CCN(S(=O)(=O)c3cccs3)CC1)n2CC	14	-3.5%[38.3 µM]	0.4	-11	4%	-0.6	-2.7%
O=C(CN1CCN(c2ccccc2O)CC1)NC(=O)NCc1ccccc1	30	2.6%	-1.0	-7	.	.	-2.6%
O=C(c1cccc(S(=O)(=O)N2CCOCC2)c1)N1CCCCCC1	11	2.0%[38.3 µM]	0.8	-1	13%	-0.5	0.3%
O=C(C1=C[C@@H](C2CC2)C[C@@H](OCc2ccc(CO)cc2)O1)N1CCN(Cc2ccc3c(c2)OCO3)CC1	-9	-0.1%	0.8	-7	-17%	-4.8	-2.2%
CCC(N=c1cc(-c2ccc(OC)c(OC)c2)oc2ccc(C)cc12)C(=O)O (stereo not drawn)	-12	-3.6%	0.5	11	12%	1.1	-26%
CC[C@@H]1C(c2ccc(F)cc2)=NN(c2ccccc2)[C@H]1C(=O)N1CCOC1=O	30	1.8%	-1.1	.	4%	?	13%
O=C(CSc1ncccn1)Nc1ccc2c(c1)CCC2	-8	0.1%	-0.9	-9	2%	1.8	1.8%
COc1ccc(S(=O)(=O)n2cccc2)cc1OC	-25	-1.3%	0.5	3	-8%	-2.5	-0.7%
CCC(C)NCC(O)COCc1ccc(Cl)cc1 (stereo not drawn)	-22	-2.0%	0.8	2	-14%	2.9	-2.8%
O=C(c1ccc([N+](=O)[O-])cc1[N+](=O)[O-])N1CCc2ccccc21	4	-0.7%	0.6	-1	4%	-4.1	.
Cc1nn(C)cc1/C=C(/C#N)C(N)=O	0	-3.6%	-0.2	3	31%[activator]	.	16µM*
CC1CCN(C(=O)Cn2cc(C(=O)c3ccco3)c3ccccc32)CC1	-1	0.5%	0.3	6	-10%	1.6	0.3%
NS(=O)(=O)c1ccc(NCC2COc3ccccc3O2)c([N+](=O)[O-])c1 (stereo not drawn)	8	-0.8%	-0.7	0	12%	-7.6	.
COC(=O)c1cc(S(=O)(=O)NCCCN2CCCC2=O)cn1C	-9	1.3%	-0.1	-4	4%	0.2	0.7%
CCC1CCC(C(=O)NC(CCSC)C(=O)NCCc2ccc(S(N)(=O)=O)cc2)CC1 (stereo not drawn)	2	1.2%	1.5	-9	7%	-3.4	0.7%
COC(=O)c1cn(NC(=O)c2cccnc2)c(=O)c2ccccc12	-6	-2.9%	3.2	2	-6%	0.3	-21%
O=C1CNC(=S)N1CCc1ccccc1Cl	7	1.9%	-0.3	-1	21%	4.6	.
Cc1ccc(-c2csc(NC(=O)c3ccc4c(=O)n5c(nc4c3)CCCCC5)n2)cc1	0	1.4%	0.2	-1	14%	7.6	-8.1%
CCc1ccc(N2CC(C(=O)NCCC3=CCCCC3)CC2=O)cc1 (stereo not drawn)	-14	-0.8%	1.0	-22	13%	.	0.3%
O=C(CN1CCC(NC(=O)c2cccc(F)c2)CC1)Nc1ccc(Br)cc1	-6	-1.5%	-1.1	-4	5%	-3.6	-1.5%
COc1ccc(Cl)cc1NC(=O)Cn1c(=O)n(CCCC(=O)NCCc2ccc(OC)c(OC)c2)c(=O)c2ccccc21	1	9.8%	0.0	.	.	.	?
COc1ccc(/C=C2\CCC(C3CCCC3)C2=O)cc1Cn1nc(C)cc1C (stereo not drawn)	6	-2.5%	0.8	-1	14%	2.2	-9.4%
COc1cc2c(cc1OC)CN(C(=O)c1ccc3[nH]c(C)c(C)c3c1)CC2	.	0.4%	.	8	-3%	-2.5	-5.6%
Cc1oc2c(c(C)cc3oc(=O)c(CC(=O)NCCCN4CCCC4=O)c(C)c32)c1C	.	-0.1%	.	7	7%	-4.0	-19%
Cc1ccc(NC(=O)c2oc3ccc(S(=O)(=O)N4CCC5(CC4)OCCO5)cc3c2C)c(C)c1	0	1.8%	1.3	.	.	.	-16%
Cc1ccc(-c2nc3cc(NC(=O)c4cc5ccccc5o4)ccc3o2)cc1	13	0.8%	-0.6	.	.	.	3.5%
Cc1ccc(C2(c3noc(CN4CCC(C(=O)N5CCOCC5)CC4)n3)CCCC2)cc1	7	0.7%	-0.6	-14	10%	-0.1	-0.4%
COc1ccc(CNC(=O)c2ccc3oc(C(C)C)nc3c2)cc1	-8	-0.8%	-0.5	-26	2%	.	-0.3%
COc1ccc(OC)c(S(=O)(=O)NCC(=O)NC2CCCc3ccccc32)c1 (stereo not drawn)	-8	-0.1%	-0.1	-37	.	.	-3.2%

Bioassay records: PubChem BioAssay, National Center for Advancing Translational Sciences (NCATS)
